# Bioassay records from PubChem.
# HPGD block = qHTS Assay for Inhibitors of HPGD (15-Hydroxyprostaglandin Dehydrogenase); AID 894, 2007; Potency, µM, without a hit: at the highest dose activity change, negative = inhibition, actives largely listed as inhibitors; 15-hydroxyprostaglandin dehydrogenase [NAD(+)] (Homo sapiens), P15428; actives 4.3% (n = 150,000); purified HPGD, NADH fluorescence kinetic, PGE2 substrate; active = well fitted inhibition curve with a large enough effect (not every such curve was filed as active); inconclusive = small, poorly fitted or top-dose-only effect, or another doubt; inactive = no such curve, though single readings can be large or run the other way;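 note: top concentration of the series not given in the record; plate controls included wells without enzyme; inactives centre near -10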
# Target sequence (P15428 whole entry, looked up): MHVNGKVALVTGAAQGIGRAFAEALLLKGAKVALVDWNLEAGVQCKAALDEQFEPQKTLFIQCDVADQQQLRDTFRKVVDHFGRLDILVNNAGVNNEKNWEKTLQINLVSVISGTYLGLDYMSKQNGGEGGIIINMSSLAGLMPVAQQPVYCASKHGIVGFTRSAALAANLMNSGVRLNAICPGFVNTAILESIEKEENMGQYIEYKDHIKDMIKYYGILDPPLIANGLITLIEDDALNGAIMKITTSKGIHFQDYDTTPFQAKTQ
#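 20 nM HPGD preincubated 15 min at room temperature with compound in 50 mM Tris-HCl pH 8, 0.01% Tween 20. Started with 1 mM NAD+ and 30 uM prostaglandin E2; NADH fluorescence (360/450 nm) read 5 times over 30-s intervals, last minus first.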
# Active calls of the source: *; ? = inconclusive; & = joins results of further samples. % is set by controls: 0 for no effect and ±100 for the full control effect; potency is the fitted concentration of half-maximal effect.
# A first look:
no.	HPGD block	Molecule
1	?	CCCSc1ccc2nc(-c3ccccc3)cn2c1
2	-9%	CCC(CC)NC(=O)c1cc2c(C)nn(Cc3ccccc3Cl)c2s1
3	-13%	O=c1[nH]cnc2c1cnn2Cc1ccccc1
4	-18%	O=C(CCn1nnc(-c2cccs2)n1)NC1CCCCC1
5	-2%	CC1CCN(c2ccc([N+](=O)[O-])cc2C(=O)O)CC1
6	-12%	O=C(CS(=O)c1cccc(Cl)c1)Nc1ccccc1Cl (stereo not drawn)
7	-14%	O=C(COc1ccc(C(F)(F)F)cc1[N+](=O)[O-])Nc1cccc(C(F)(F)F)c1
8	-8%	Cc1cc(C(=O)CN2C(=O)c3ccccc3S2(=O)=O)c(C)n1-c1ccccc1
9	14µM*	CCOC(=O)c1ccc(NS(=O)(=O)CC)cc1
10	-16%	O=C(O)CSc1c(-c2ccccc2)[nH]c2ccccc12
11	-6%	COc1ccc(NC(=O)N(Cc2ccc3c(c2)OCO3)C2CC(=O)N(c3ccc(OC)cc3)C2=O)cc1 (stereo not drawn)
12	-8%	CC/C=C\C/C=C\C/C=C\C/C=C\C/C=C\CCCCCC(=O)O
13	-19%	COc1ccc(S(=O)(=O)NCCc2csc(-c3cccnc3)n2)cc1
14	-3%	Cn1nc2c(c1C(=O)O)CCCC2
15	?	Cc1ccc2nc(-c3ccc(NC(=S)NC(=O)C(C)C)cc3)sc2c1
16	-7%	COc1ccccc1N1CCN(CC(=O)NC(=O)NCc2ccco2)CC1
17	2%	COC(=O)NC1(C(F)(F)F)NC(=O)N(C2CCCCC2)C1=O (stereo not drawn)
18	?	COCCCNC(=O)c1c(NC(=O)c2cccs2)sc2c1CCCC2
19	-17%	Oc1ccc2c(c1-c1c(O)c(Br)cc3c1CCCC3)CCCC2
20	32µM*	Oc1c(C(c2ccccc2)N2CCc3ccccc3C2)sc2ncnn12 (stereo not drawn)
21	?	Cn1c(=O)c(/C=C/c2ccccc2)nc2ccccc21
22	-5%	Cc1ccc(S(=O)(=O)N2CCCOC2)cc1
23	-25%	c1cc2[nH]snc2c2nc(C3CC3)nc12
24	-4%	COc1ccc(OC)c(S(=O)(=O)NCCc2cn3ccsc3n2)c1

# Main list, from the first entry:
no.	HPGD block	Molecule
1	?	CCCSc1ccc2nc(-c3ccccc3)cn2c1
2	-9%	CCC(CC)NC(=O)c1cc2c(C)nn(Cc3ccccc3Cl)c2s1
3	-13%	O=c1[nH]cnc2c1cnn2Cc1ccccc1
4	-18%	O=C(CCn1nnc(-c2cccs2)n1)NC1CCCCC1
5	-2%	CC1CCN(c2ccc([N+](=O)[O-])cc2C(=O)O)CC1
6	-12%	O=C(CS(=O)c1cccc(Cl)c1)Nc1ccccc1Cl (stereo not drawn)
7	-14%	O=C(COc1ccc(C(F)(F)F)cc1[N+](=O)[O-])Nc1cccc(C(F)(F)F)c1
8	-8%	Cc1cc(C(=O)CN2C(=O)c3ccccc3S2(=O)=O)c(C)n1-c1ccccc1
9	14µM*	CCOC(=O)c1ccc(NS(=O)(=O)CC)cc1
10	-16%	O=C(O)CSc1c(-c2ccccc2)[nH]c2ccccc12
11	-6%	COc1ccc(NC(=O)N(Cc2ccc3c(c2)OCO3)C2CC(=O)N(c3ccc(OC)cc3)C2=O)cc1 (stereo not drawn)
12	-8%	CC/C=C\C/C=C\C/C=C\C/C=C\C/C=C\CCCCCC(=O)O
13	-19%	COc1ccc(S(=O)(=O)NCCc2csc(-c3cccnc3)n2)cc1
14	-3%	Cn1nc2c(c1C(=O)O)CCCC2
15	?	Cc1ccc2nc(-c3ccc(NC(=S)NC(=O)C(C)C)cc3)sc2c1
16	-7%	COc1ccccc1N1CCN(CC(=O)NC(=O)NCc2ccco2)CC1
17	2%	COC(=O)NC1(C(F)(F)F)NC(=O)N(C2CCCCC2)C1=O (stereo not drawn)
18	?	COCCCNC(=O)c1c(NC(=O)c2cccs2)sc2c1CCCC2
19	-17%	Oc1ccc2c(c1-c1c(O)c(Br)cc3c1CCCC3)CCCC2
20	32µM*	Oc1c(C(c2ccccc2)N2CCc3ccccc3C2)sc2ncnn12 (stereo not drawn)
21	?	Cn1c(=O)c(/C=C/c2ccccc2)nc2ccccc21
22	-5%	Cc1ccc(S(=O)(=O)N2CCCOC2)cc1
23	-25%	c1cc2[nH]snc2c2nc(C3CC3)nc12
24	-4%	COc1ccc(OC)c(S(=O)(=O)NCCc2cn3ccsc3n2)c1
25	3%	C/C(=N\NC(=O)c1nn(C)c(C)c1Br)c1cccc(NC(=O)c2ccc(F)cc2)c1

# Next section
no.	HPGD block	Molecule
26	-1%	O=C(COC(=O)C1=COCCO1)Nc1ncc(C(F)(F)F)cc1Cl
27	3%	NC(=O)CSc1nnc(-c2cccc(S(=O)(=O)N3CCOCC3)c2)n1C1CCCCCC1
28	-11%&-4%	CCC(CO)NCCNC(CC)CO (stereo not drawn)
29	-8%	CCCOC(=O)Nc1cc(OC)c(Cl)cc1OC
30	-4%	Cc1nnc(NC(=O)C2(c3ccccc3)CCOCC2)s1
31	-10%	CC(CCc1ccc(O)cc1)NCCc1ccc(O)c(O)c1 (stereo not drawn)
32	-9%	O=C(CSc1ccccc1)Nc1cccc(S(=O)(=O)N2CCCC2)c1
33	-8%	COc1cc(C(=O)Nc2ccc(NC(=O)C(C)C)nc2)cc(OC)c1OC
34	-24%	O=C(CN1CCSCC1)N/N=C/c1ccc(F)cc1F
35	1%	CC(C)(C)NCCCCOc1ccccc1F
36	-5%	COCCNC(=O)C1CC(=O)N(CCc2ccccc2)C1 (stereo not drawn)
37	-22%	COc1cccc(/C=C/C(=O)c2ccc(C)c([N+](=O)[O-])c2)c1
38	?	COc1ccc(/C=C/C(=O)Oc2cccc(/C=N/NC(=O)c3cccc(F)c3)c2)cc1
39	-13%	CCc1cc2cc(C)cc(C)c2nc1SCC(=O)N1CCN(C(=O)c2ccco2)CC1
40	-7%	CCOC(=O)Cn1c(SC)nc2sc3c(c2c1=O)CC(C)(C)OC3
41	-1%	O=C(CCN1CCc2ccccc2C1)Nc1cccc(F)c1
42	-6%	FC(F)(F)c1cnc2c(c1)Nc1ccccc1S2
43	-1%	C(=N\n1cnnc1)/c1cccc(Oc2ccccc2)c1
44	-29%	COC(=O)c1cc(NC(=O)CC2SCCNC2=O)cc(C(=O)OC)c1 (stereo not drawn)
45	?	O=C(NCC(O)CO)c1ccc2[nH]c3ccccc3c2c1 (stereo not drawn)
46	16µM*	CCOC(=O)N/N=C/c1ccc(OCCSc2ccc(Cl)cc2)c(OCC)c1
47	?	CCn1nnc2sc3c(c2c1=O)CCC(C)C3 (stereo not drawn)
48	2%	COc1cccc(-c2nnc(SCC(=O)N(C(C)C)C(C)C)o2)c1
49	-11%	Cc1ccc(CS(=O)(=O)Cc2ccc(C(=O)NCc3ccco3)o2)cc1
50	-8%	Cc1cc(C(=O)COC(=O)c2n[nH]c3ccccc23)c(C)n1C

# Additional structures follow.
no.	HPGD block	Molecule
51	?	COc1ccc(C2C=C(c3ccccc3)Nc3nc(CCCO)nn32)cc1 (stereo not drawn)
52	-8%	OCCCNc1nc(-c2ccc(Cl)cc2)nnc1-c1ccc(Br)cc1
53	-15%	CC(C)CCOCC(=O)Nc1cccc(C(=O)O)c1
54	-6%	O=C(O[C@@H](C(=O)O)[C@@H](OC(=O)c1ccccc1)C(=O)O)c1ccccc1
55	-4%	COc1cccc(NC(=O)C2C3CC4OC(=O)C2C4C3)c1 (stereo not drawn)
56	?	Cc1ccc2nc(-c3ccc(NC(=O)COC(=O)c4ccc(Br)o4)cc3)sc2c1
57	?	Cc1nc2cc(-c3ccc(Cl)cc3)nn2c(C)c1CCC(=O)NC(C)c1ccc2c(c1)OCCO2 (stereo not drawn)
58	-8%	COCCCNC(=O)C1CC(=O)N(C2CCCC2)C1 (stereo not drawn)
59	-6%	CCCC(=O)Nc1nc(C(=O)OCC)cs1
60	14µM*	Cc1cc2[nH]c(=S)[nH]c2cc1C
61	-21%	CC(=O)c1ccc(NC(=O)C(C)OC(=O)c2ccc3c(c2)nc(C)n3-c2ccccc2)cc1 (stereo not drawn)
62	-8%	O=C(COc1ccc(-n2cnnn2)cc1)N1CCN(c2ccc(F)cc2)CC1
63	20µM*	CC(C)Oc1ccc(CNC(=O)Cn2c(=O)oc3ccccc32)cc1
64	1%	Cc1oc2c(c1C(=O)Nc1cccc(C(=O)O)c1)CCCC2
65	-7%	O=c1c2c3c(sc2nc2sc(C4CC4)nn12)CCCC3
66	-14%	COc1ccc(NS(=O)(=O)/C=C/c2ccccc2)cc1
67	-11%	Cn1c2ccccc2c(=O)c2c(=O)n(C3CCCCCC3)c(C3CCCCC3)nc21
68	?	Nc1c(C(=O)N/N=C/c2cccnc2)cnn1-c1ccccc1
69	-7%	Cc1ccc(S(=O)(=O)N(NC2=NS(=O)(=O)c3ccccc32)C(=O)c2ccccc2)cc1
70	-2%	O=S1(=O)N=C(N2CCc3ccccc3C2)c2ccccc21
71	-13%	COc1ccc(-c2cc(=Nc3ccc(C)cc3)c3ccccc3o2)cc1
72	-3%	Cn1c(=O)oc2cc(S(=O)(=O)N3CCN(c4cccc(Cl)c4)CC3)ccc21
73	-10%	O=C(CNC(=O)c1ccco1)OC(C(=O)c1ccccc1)c1ccccc1 (stereo not drawn)
74	?	CCCCC(=O)NCc1ccc(F)cc1
75	-16%	O=C1CC(c2ccccc2)Cc2nc3nc(C(F)(F)F)nn3cc21 (stereo not drawn)

# (cont.)
no.	HPGD block	Molecule
76	-14%	CCCOc1ccc(Cn2c(O)cc(=O)[nH]c2=O)cc1
77	-1%	O=C1N[C@@H](Cc2c[nH]c3ccccc23)C(=O)N[C@H]1Cc1c[nH]c2ccccc12
78	-8%	CCOC(=O)C1=C(C)C(c2ccccc2O)NC(=O)N1 (stereo not drawn)
79	-12%	O=C(Oc1cccc(N2C(=O)CCC2=O)c1)C1CC(=O)N(c2ccc(Br)cc2)C1 (stereo not drawn)
80	-4%	COc1cc(C2NC(=S)NC(O)(C(F)(F)F)C2C(=O)c2cccs2)cc(OC)c1O (stereo not drawn)
81	-11%	CCc1ccc(Nc2cc(C)nc3nc(C)nn23)cc1
82	-26%	Cc1ccc(C(=O)/C=C/c2ccc(F)cc2)o1
83	-14%	COc1ccc(NC(=O)COC(C)=O)cc1Cl
84	-5%	O=C(CCS(=O)(=O)Cc1ccccc1)NCc1ccco1
85	-10%	C=CCOC(=O)C1=C(C)NC(SCC(=O)NC(=O)OCC)=C(C#N)C1c1cccnc1 (stereo not drawn)
86	-7%	COc1cccc(NC(=O)C2CC(=O)N=C(N)S2)c1 (stereo not drawn)
87	-3%	CCOc1cc(CNCc2ccccn2)ccc1OCC(=O)NC1CCCCC1
88	-8%	CCC(=O)c1ccc(OCC(O)CN2CCCCC2)cc1 (stereo not drawn)
89	-21%	O=C(CCl)Oc1ccc2occ(C(=O)c3cccs3)c2c1
90	1%	CCCCCCCCC(=O)NCCOc1ccc(OC)cc1
91	-9%	O=C(c1ccccc1)c1c[nH]c(C(=O)NCCCn2ccnc2)c1
92	-6%	CCN(CC)CCNC(=O)Cn1nc(Cc2cccnc2)c2ccccc2c1=O
93	-5%	COc1ccccc1C1(CCNS(=O)(=O)c2ccc(C)cc2)CCOC(C(C)C)C1 (stereo not drawn)
94	-30%	O=C1c2ccccc2NC(c2cnc3ccccc3n2)N1O (stereo not drawn)
95	-6%	O=C(Nc1ccccc1C(=O)NC1CCCCC1)c1ccco1
96	-10%	Cc1ccnc(NC(=S)NC(=O)c2cccs2)c1
97	-8%	Cc1ccc(C)c(NC(=O)c2ccc(OC(=O)c3ccco3)cc2)c1
98	-13%	CSc1cccc(NC(=O)Nc2ccccc2)c1
99	-2%	CC1CCC(=NNc2ccc(C(F)(F)F)cc2[N+](=O)[O-])CC1 (stereo not drawn)
100	14µM*	COC(=O)N/N=C/c1ccc(-c2ccc(C)c(Cl)c2)o1

# Other records follow.
no.	HPGD block	Molecule
101	?	Cc1cc(=O)oc2cc(OCC3CC(c4ccc(Br)cc4)=NO3)ccc12 (stereo not drawn)
102	-6%	CCOC(=O)C1=C(C)NC(=S)NC1c1cccs1 (stereo not drawn)
103	?	Cc1ccc(SCC(=O)NCCC2=CCCCC2)cc1
104	-18%	Cc1nn(Cc2ccccc2)c2c1C(c1ccco1)C(C#N)=C(N)O2 (stereo not drawn)
105	-18%	COCCn1cnnc1SCC(=O)c1ccc(S(=O)(=O)N2CCCC2)cc1
106	-5%	CN(CC(=O)Nc1ccccc1Br)Cc1nc2ccccc2c(=O)[nH]1
107	-1%	COc1ccc(OC)c(C2C(C(=O)Nc3ccc(F)cc3)=C(C)Nc3nc(CCCO)nn32)c1 (stereo not drawn)
108	-1%	Cc1ccc(C(=O)OC2CCS(=O)(=O)c3sccc32)cc1 (stereo not drawn)
109	-24%	CCN(C(=O)CN1CCN(c2ccccc2)CC1)c1c(N)n(Cc2ccccc2)c(=O)[nH]c1=O

# Pulled one by one from the list above, three records:
no.	HPGD block	Molecule
102	-6%	CCOC(=O)C1=C(C)NC(=S)NC1c1cccs1 (stereo not drawn)
105	-18%	COCCn1cnnc1SCC(=O)c1ccc(S(=O)(=O)N2CCCC2)cc1
103	?	Cc1ccc(SCC(=O)NCCC2=CCCCC2)cc1

# An excerpt; rates above refer to the full screens.
